p53 mut binder – mutant p53 (human) binding | small molecule microarray binding, anti-GST fluorescence | calls only | 0.4% of 17,000 active | AID 624136;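 active = compounds whose four printed spots each glow above background more than chance allows, each with a p-value under 7%; compounds were printed on slides so no solution concentration is given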;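 also: about 2 pmol printed per array spot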
STAT3 SMM – binders of human STAT3. Small molecule microarray, His-STAT3 binding, anti-His fluorescence. calls only. 0.2% of 17,000 active;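 active = compounds whose four printed spots each show fluorescence over background unusually high for their array block, chance value under 7%; compounds were printed on slides so no solution concentration is given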;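 also: about 2 pmol printed per array spot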
ID4 binder – binds human ID4 protein on microarray; P47928; small molecule microarray, Flag-ID4 binding, fluorescence F/B; calls only; 1.2% of 31,000 active;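 active = spot signal over background at p below 0.07 in all four prints; compounds were printed on slides so no solution concentration is given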;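 also: a binder raises fluorescence above local background on the spot; about 2 pmol printed per array spot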
Target sequence (P47928 whole entry, looked up): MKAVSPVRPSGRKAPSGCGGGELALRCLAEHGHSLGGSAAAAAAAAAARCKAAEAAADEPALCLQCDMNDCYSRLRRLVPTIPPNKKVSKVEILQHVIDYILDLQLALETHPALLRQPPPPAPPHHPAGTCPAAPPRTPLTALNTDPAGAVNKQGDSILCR
c-Myc SMM – c-Myc (human) binding | P01106 | small molecule microarray, His-c-Myc binding, anti-His fluorescence | calls only | 1.5% of 17,000 active;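 active = spot fluorescence over background with P-value below 7% in all four replicate spots, showing protein binding; compounds were printed on slides so no solution concentration is given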;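 also: score is binary with 100 for all four spots passing and 0 otherwise; about 2 pmol printed per array spot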
Calls only; i = inactive; . = no result given.

| SMILES | p53 mut binder | STAT3 SMM | ID4 binder | c-Myc SMM |
| --- | --- | --- | --- | --- |
| C[N+]1(C)CCC(=C(c2ccccc2)c2ccccc2)CC1 | i | i | i | i |
| C=CCN1CC(C(=O)N(CCCN(C)C)C(=O)NCC)CC2c3cccc4[nH]cc(c34)CC21 (stereo not given) | i | i | . | i |
| Cc1ccc(=O)n(-c2ccccc2)c1 | i | i | i | i |
| NC(=O)N1C(=O)C(C(=O)c2cccs2)c2cc(Cl)ccc21 (stereo not given) | i | i | i | i |
| C=CCn1c(=O)n(C2OC(CO)C(O)C2O)c2nc(N)[nH]c(=O)c21 (stereo not given) | i | i | i | i |
| COc1nccc(-c2c(-c3ccc(F)cc3)ncn2C2CCC(O)CC2)n1 (stereo not given) | i | i | i | i |
| Nc1ccc(-c2cccc3c(=O)cc(N4CCOCC4)oc23)cc1 | i | i | i | i |
| COc1ccc([C@H]2CNC(=O)C2)cc1OC1CCCC1 | i | i | i | i |
| O=c1cc(-c2ccc(O)cc2)oc2cc(OC3OC(CO)C(O)C(O)C3OC3OCC(O)(CO)C3O)cc(O)c12 (stereo not given) | i | i | i | i |
| COc1ccc(C[C@H]2COC(=O)[C@@H]2Cc2ccc(O[C@@H]3O[C@H](CO)[C@@H](O)[C@H](O)[C@H]3O)c(OC)c2)cc1OC | i | i | i | i |
| CC(C)=CCOc1c2ccoc2cc2oc(=O)ccc12 | i | i | i | i |

Complete entries, looked up by structure.
Results for C[N+]1(C)CCC(=C(c2ccccc2)c2ccccc2)CC1 : p53 mut binder: i; STAT3 SMM: i; ID4 binder: i; c-Myc SMM: i
Results for Cc1ccc(=O)n(-c2ccccc2)c1 : p53 mut binder: i; STAT3 SMM: i; ID4 binder: i; c-Myc SMM: i

Five entries picked at random from the list so far, as already listed:
| SMILES | p53 mut binder | STAT3 SMM | ID4 binder | c-Myc SMM |
| --- | --- | --- | --- | --- |
| O=c1cc(-c2ccc(O)cc2)oc2cc(OC3OC(CO)C(O)C(O)C3OC3OCC(O)(CO)C3O)cc(O)c12 (stereo not given) | i | i | i | i |
| COc1nccc(-c2c(-c3ccc(F)cc3)ncn2C2CCC(O)CC2)n1 (stereo not given) | i | i | i | i |
| C=CCN1CC(C(=O)N(CCCN(C)C)C(=O)NCC)CC2c3cccc4[nH]cc(c34)CC21 (stereo not given) | i | i | . | i |
| Nc1ccc(-c2cccc3c(=O)cc(N4CCOCC4)oc23)cc1 | i | i | i | i |
| Cc1ccc(=O)n(-c2ccccc2)c1 | i | i | i | i |

Some of the compounds tested (hit frequency here may not be typical).
